Autofluor counter = compound fluorescence in toxin protease inhibitor counterscreen; 360,000 compounds, 3.1% hits; AID 624483; fluorescence intensity (concentration not given with the values); compound autofluorescence counterscreen, microsphere flow cytometry; stronger effect = higher value;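 active means at least 3 SD above the mean of all compounds, about 16000 in these data; inconclusive means too few beads counted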;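 further: 100 nL of 1 mM stock went into each well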
ugtP null kill = compounds lethal to S. aureus RN4220 ugtP deletion mutant; OD600 growth, 16 h; some inactives read as strong as hits; growth inhibition, % (no concentration beside the values); 330,000 compounds, 0.54% hits; AID 1259309;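 active means z-score under -3 and OD600 up to 0.15 on both plates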;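 further: plate controls were untreated wells for no effect and antibiotic for full effect; wells of about 80 µL received 100 nL stock; the first replicate is given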
Mtb hypoxia rep = Mtb hypoxia fluorescent reporter inhibition | AID 1159583 | 300,000 compounds, 0.1% hits | M. tuberculosis hypoxia-regulated fluorescent reporter, fluorescence | fluorescence inhibition, % (no concentration beside the values);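 active means 35 to 45% if threefold the growth effect, above 45% if 1.5-fold the growth effect; inactive means the rest, general growth blockers included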;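 further: wells of about 50 µL received 100 nL stock; 0% = vehicle wells and 100% = reference inhibitor wells; whole bacteria with a GFP reporter of the hypoxia response; strong numbers were not always called active; many hits fall short of the cut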
Sa RN4220 lethal = S. aureus RN4220 growth inhibition. OD600, 16 h. inhibition, % (test concentration not listed). 330,000 compounds, 0.33% hits;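 active means z-score of -3 or lower and OD600 up to 0.18 on both plates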;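 further: plate controls were untreated cells for no effect and reference antibiotic for full effect; stock transfer was 100 nL into about 80 µL; one replicate is shown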
BJeLR viability = kills HRASV12-expressing BJeLR cells | BJeLR (HRASV12) viability, CellTiter-Glo ATP luminescence, 48 h; reference of the scale not given here | inhibition, % (test concentration not listed) | 300,000 compounds, 0.17% hits;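 active means replicate mean above 50%; inconclusive means above 50% but judged a plate artefact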;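 further: 50 nL library stock added to about 25 µL; numbers are from one replicate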
PrP UTR inh = suppresses PrP 5' UTR mRNA reporter expression | cell-based PrP 5' UTR mRNA reporter, plate reader | inhibition, % (concentration not given with the values) | 340,000 compounds, 0.35% hits;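 active means every replicate at 50% or more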;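 further: 0 = median of the neutral control wells; tested in H4 reporter cells; numbers are from one replicate; inactives centre near -14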
Mtb hypoxia rep growth = second read-out of Mtb hypoxia rep, no call of its own (marks repeat the call); growth inhibition, %; measured here: M. tuberculosis growth (absorbance);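 0% = vehicle and 100% = reference antibiotic; read after six days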
Numbers without * were called inactive; u = inconclusive; x = not tested or not shown.

SMILES	Autofluor counter	ugtP null kill	Mtb hypoxia rep	Mtb hypoxia rep growth	Sa RN4220 lethal	BJeLR viability	PrP UTR inh
COc1ccc(/C=C/C(=O)N2CCN(c3ccccc3)CC2)cc1S(=O)(=O)N1CCOCC1	5144	-9	-9	5	1.7	22	-13
COCCCNC(=O)c1cn(-c2cccc(OC)c2)c(=O)c2ccccc12	3776	-10	-10	-3	-3.3	-1	-17
CC(NC(=O)c1ccccc1F)c1nnc(SCC(=O)NC2CCCCC2)n1C (configuration not stated)	5637	2	-1	9	1.5	4	3
COc1cc2c(cc1OC)C(c1cc(Br)ccc1O)N(C(C)=O)CC2 (configuration not stated)	3609	-2	2	3	-0.2	-7	-19
O=C(C1=NN[C@@H]2C(=O)N(c3ccccc3C(F)(F)F)C(=O)[C@H]12)C(c1ccccc1)c1ccccc1	2746	8	-9	0	-0.5	-7	-25
NS(=O)(=O)c1ccc(NC(=O)COC(=O)c2cn(-c3ccccc3)nc2-c2ccccc2)cc1	4372	-5	-4	-10	-1.0	-2	-6
CCN(c1cccc(C)c1)S(=O)(=O)c1ccc(-c2cc(C)no2)s1	5474	-5	-8	4	14	11	-34
Cc1ccc(/C=C2\C(=O)NC(=O)N(Cc3ccccc3Cl)C2=O)o1	2214	8	10	2	3.8	7	-29
COc1cc(Cl)c(C)cc1NC(=O)Cc1cccs1	3420	17	8	14	2.5	3	-12
CC(=O)NN1C(=O)c2ccc(Oc3ccc4c(c3)C(=O)N(NC(C)=O)C4=O)cc2C1=O	x	6	11	10	16	-2	x
CC1CN(C(=O)N[C@@H](Cc2ccccc2)C(=O)O)CC(C)O1 (some centres not stated)	3331	-4	3	8	-16	7	-11
COc1ccccc1CNC(=O)Cn1cc(Br)ccc1=O	3728	-4	11	8	1.3	-6	-22
CN(C)CCOC1c2ccccc2C=Cc2ccccc21	x	20	-1	9	1.2	0	x
Cc1ccc(C(=O)C[n+]2ccccc2)cc1	3692	9	2	1	1.0	3	64*
CCOC(=O)N1CCN(C(=O)C2CCC(=O)N(Cc3cccc(C(F)(F)F)c3)C2)CC1 (configuration not stated)	6114	-5	1	1	3.5	2	-20
CCc1ccc(S(=O)(=O)Nc2ccncc2)cc1	3315	x	x	x	x	1	-29
Cc1onc(-c2c(Cl)cccc2Cl)c1C(=O)N1CCSCC1	x	7	18	7	4.8	7	-27
COc1ccccc1NC(=S)N(Cc1ccccc1)Cc1cccnc1	4621	6	10	2	2.3	-1	-7
CC(C)CCCn1c(O)c(/C=C2/C=CC=N2)c(=O)[nH]c1=O	2158	-7	13	4	4.9	-14	-37
Cc1ccc(S(=O)(=O)N2CC(=O)Nc3ccccc32)cc1	11029	4	19	14	5.1	-14	-13
Cc1ccc(NC(=O)CCSc2nnc(C)s2)cc1	5998	1	16	10	6.3	-7	-29
Cc1ccc(S(=O)(=O)N2CCCCC2)cc1NC(=O)COC(=O)c1cc[n+]([O-])cc1	2483	-2	8	4	4.2	-4	-2
COc1ccc(-c2nc(CN3CCCC(C(=O)NC4CCCC4)C3)c(C)o2)cc1 (configuration not stated)	9867	2	13	15	6.4	-3	-8
O=C(NNC(=O)c1ccccc1-n1cccc1)c1ccc(F)cc1	4054	x	x	x	x	17	-5
Cc1cccc(C)c1NC(=O)CCc1nnc2ccc(N3CCCC3)nn12	5417	1	2	-2	2.7	0	-9

Reprinted at random: 2 entries already listed.
SMILES	Autofluor counter	ugtP null kill	Mtb hypoxia rep	Mtb hypoxia rep growth	Sa RN4220 lethal	BJeLR viability	PrP UTR inh
Cc1ccc(C(=O)C[n+]2ccccc2)cc1	3692	9	2	1	1.0	3	64*
Cc1cccc(C)c1NC(=O)CCc1nnc2ccc(N3CCCC3)nn12	5417	1	2	-2	2.7	0	-9

Further results follow:
SMILES	Autofluor counter	ugtP null kill	Mtb hypoxia rep	Mtb hypoxia rep growth	Sa RN4220 lethal	BJeLR viability	PrP UTR inh
COC(=O)c1ccccc1NC(=S)N(Cc1ccc2c(c1)OCO2)Cc1cc2cccc(C)c2[nH]c1=O	2584	5	-7	-6	-0.7	-4	0
OC(COc1ccc(OCc2ccccc2)cc1)CN1CCCCC1 (configuration not stated)	6698	7	16	20	3.3	4	-48
COC(=O)C(NC(=O)c1ccccc1C)(Nc1ncc(S(=O)(=O)c2ccc([N+](=O)[O-])cc2)s1)C(F)(F)F (configuration not stated)	9300	-7	3	2	3.6	-4	-20
CCN(CC)CCCNC(=O)c1cc2c(-c3ccc(Cl)cc3)nn(C)c2s1	4200	10	x	x	-3.9	45	-1
CCOC(=O)c1c(C)[nH]c(C(=O)CN2C(=O)NC(C)(CC(C)C)C2=O)c1C (configuration not stated)	3640	9	14	9	5.3	-8	-21
COc1ccc(CCNc2ccc(C(CC(N)=O)NC(=O)c3ccccc3)cc2[N+](=O)[O-])cc1 (configuration not stated)	4139	-10	17	12	5.5	-2	-19
COc1ccc(C(=O)NCc2ccc(N3CCN(C(=O)OC(C)(C)C)CC3)cc2)cc1	22812*	-3	2	18	0.2	3	-8
NNc1ccc(S(=O)(=O)N2CCCCC2)cn1	3488	12	10	-5	5.6	-8	-12
COc1ccc2nc(NC(=O)c3ccc(F)cc3)sc2c1	4500	-2	12	10	3.3	-6	-41
O/N=C/c1cccn1-c1ccc(O)cc1	23862*	x	x	x	x	16	-8
CCOc1ccc(OCCSc2nnnn2C2CCCCC2)cc1	4191	13	x	x	8.6	3	3
C(=N/Nc1cc(N2CCOCC2)nc(N2CCOCC2)n1)/c1ccccc1	2376	x	x	x	x	-14	-2
COc1ccc(-n2c(SCC(=O)NCc3cccs3)nc3[nH]ncc3c2=O)cc1	4399	x	x	x	x	-2	-11
COc1cccc(C(=O)Nc2nnc(SCC(=O)NC3CCCC3)s2)c1	5754	7	8	1	3.7	2	-16
O=C(COC(=O)Cc1ccc(Br)cc1)NCc1ccc2c(c1)OCO2	u	6	3	2	2.2	x	-16
COCCN(C(=S)Nc1ccccc1OC)C(C)c1cccs1 (configuration not stated)	2421	17	8	9	8.4	-5	1
CCOC(=O)CC1COCCN1C(=O)CCc1nnc(-c2ccsc2)o1 (configuration not stated)	2675	1	8	1	1.2	-9	-19
O=C(CN1CCSCC1)N/N=C/c1ccc(F)cc1	19770*	x	x	x	x	-2	-19
CCCc1cc2c(cc1NC(=O)c1ccccc1F)OCO2	2480	-1	4	4	8.4	0	-2
CC1CCN(C(=O)c2cc(S(=O)(=O)N3CCOCC3)ccc2N2CCCC2)CC1	2850	7	1	-1	3.5	x	-13
CCCn1c(N)c(C(=O)CSc2n[nH]c(-c3ccc(C)cc3)n2)c(=O)[nH]c1=O	7174	7	1	4	4.2	-9	4
NC(=S)NN=C/C=C/c1ccccc1	x	-8	x	x	-2.7	x	x
CCN(Cc1cn2cccnc2n1)C1CCCCC1	2332	4	2	-5	3.6	7	-63
COc1cc(CCCN2C(=S)NCC2CCCCN)cc(OC)c1OC (configuration not stated)	x	1	5	3	3.5	x	x
CCn1c(SCC(=O)O)nnc1-c1ccc(S(=O)(=O)N2CCCC2)cc1	5008	9	2	0	5.8	3	-10

Later entries.
SMILES	Autofluor counter	ugtP null kill	Mtb hypoxia rep	Mtb hypoxia rep growth	Sa RN4220 lethal	BJeLR viability	PrP UTR inh
Cc1noc(NS(=O)(=O)c2ccc(NC(=O)CSc3nnc(-c4ccccc4)n3C3CCCCC3)cc2)c1C	22405*	-5	2	13	-3.5	6	12
CCC1SC2=NC(C)=C(C(=O)OCC(C)C)C(/C=C/c3ccccc3OC)N2C1=O (configuration not stated)	4331	15	-1	-5	-4.6	-10	-20
FC(F)(F)c1cc(-c2ccccc2)nc2ncnn12	10816	12	1	2	4.3	15	-26
COC(=O)c1c(C(=O)OC)c(-c2cccc(F)c2)n2c1CS(=O)C2 (configuration not stated)	4063	8	8	-1	0.3	1	-31
COc1ccc(NC(=O)N(C)CC2Oc3ccc(NC(=O)CCN4CCOCC4)cc3C(=O)N(C(C)CO)CC2C)cc1 (configuration not stated)	x	-11	-6	2	0.2	x	x
O=C(COC(=O)[C@@H]1CCCN1S(=O)(=O)c1ccc(Cl)cc1)NC1CCS(=O)(=O)C1 (some centres not stated)	4592	-5	-2	6	1.4	-1	-5
COC(=O)c1nnn(-c2nonc2N)c1CSCCO	3630	-5	x	x	-1.8	1	-8
CCOC(=O)CSc1nnc(-c2ccc(S(=O)(=O)N3CCOCC3)cc2)n1-c1ccccc1	4465	-7	1	4	-1.6	3	-2
CC1(OC(=O)C2CCCC2)C(=O)C=C2C=C3CCCCN3C=C2C1=O (configuration not stated)	3326	0	8	-3	-1.8	-12	-12
CCOC(=O)N1CCN(S(=O)(=O)c2ccc(C(=O)N(CCCN(C)C)c3nc4ccc(OC)cc4s3)cc2)CC1	4816	5	4	4	2.2	1	-26
CN(C)c1ccc(NC(=O)CN2C(=O)CC(c3ccccc3)=Nc3ccccc32)cc1	1846	2	-4	5	1.2	2	-4
CN(CCO)c1cnccn1	2569	x	x	x	x	1	-10
CCN1/C(=C/C=C/c2oc3ccc4ccccc4c3[n+]2CC)Oc2ccc3ccccc3c21	x	99*	13	7	98*	x	x
CN(C)C(=O)CSc1nnc(Cc2ccc3c(c2)OCO3)o1	3187	18	0	1	4.8	21	-20
CCOC(=O)C(C)/C(C)=N/NC(=O)CCC(=O)Nc1cc(C)ccc1C (configuration not stated)	4389	x	x	x	x	-6	-6
C[C@@H](NC(=O)c1nc[nH]c1C(=O)N[C@@H](CCCCNC(=O)OC(C)(C)C)C(=O)OC(C)(C)C)c1ccccc1	4057	x	x	x	x	-3	-12
CC1CC(C)CN(CCCNC(=O)c2cc3c(s2)-c2ccccc2OC3)C1 (configuration not stated)	6178	-5	6	10	-6.2	5	-11
c1ccc(COc2ccc(CNCc3cccs3)cc2)cc1	20591*	6	4	9	1.4	1	-27
CN(CP(=O)(O)CN(C)S(C)(=O)=O)S(C)(=O)=O	2390	2	7	12	3.8	2	-6
ClCc1cc2ccccc2nc1Cl	4541	3	14	2	13	-2	-5
CCN(CC)c1ccc(S(=O)(=O)N2CCOCC2)cc1NC(=O)Nc1ccccc1	3402	4	3	8	5.8	x	-28
O=C(Nc1ccccc1)ON=C(c1ccccc1)c1ccccn1	x	-6	-3	12	0.0	x	x
Cc1cccc(C(=O)Oc2ccc(/C=N/NC(=O)c3ccccc3O)cc2)c1	9364	x	x	x	x	8	-41
CCOC(=O)Cc1csc(NN=Cc2ccc(Cl)cc2)n1	x	9	-5	4	8.6	x	x
COC(=O)CC(c1ccc(OC)c(OC)c1)c1ccc(OC)c(OC)c1	4013	4	14	3	4.4	-25	-24

Full records, looked up by structure. Order of screens: Autofluor counter, ugtP null kill, Mtb hypoxia rep, Mtb hypoxia rep growth, Sa RN4220 lethal, BJeLR viability, PrP UTR inh
Listed for `C(=N/Nc1cc(N2CCOCC2)nc(N2CCOCC2)n1)/c1ccccc1` = 2376, x, x, x, x, -14, -2
Listed for `Cc1cccc(C)c1NC(=O)CCc1nnc2ccc(N3CCCC3)nn12` = 5417, 1, 2, -2, 2.7, 0, -9
Listed for `CCn1c(SCC(=O)O)nnc1-c1ccc(S(=O)(=O)N2CCCC2)cc1` = 5008, 9, 2, 0, 5.8, 3, -10

(more compounds)
SMILES	Autofluor counter	ugtP null kill	Mtb hypoxia rep	Mtb hypoxia rep growth	Sa RN4220 lethal	BJeLR viability	PrP UTR inh
CCC(C)(C)NC(=O)C(c1cccn1C)N(C(=O)Cn1nnc2ccccc21)c1ccc(OC)cc1OC (configuration not stated)	u	-8	-1	10	-0.6	-2	6
O=C(NCCCn1ccnc1)c1cc(-c2cccs2)on1	10989	2	0	2	7.4	9	-84
CC(C)CC(CSc1ccc(Br)cc1)N1CCN(C)CCC1=O (configuration not stated)	x	8	21	19	4.7	x	x
COCCn1c(C)cc2c(c1=O)C(c1ccco1)C(C#N)=C(N)O2 (configuration not stated)	21595*	0	-10	4	-1.3	-5	-25
CC(C)=CCC/C(C)=C/CNC(=O)C[C@H]1C[C@H](C(=O)N2CCCCC2)[C@@]2(CCc3ccccc3)c3[nH]c4cc(-c5ccco5)ccc4c3CCN2C1=O	4021	-1	-10	11	4.2	x	-10
Cn1cc(CN2CCC(C(=O)Nc3cccc(-c4cccc(F)c4)c3)CC2)cn1	5957	-10	8	12	-7.1	9	5
CC(OC(=O)NCc1ccc(C(F)(F)F)cc1)C1O[C@@]2(C)CCCC1O2 (some centres not stated)	x	-1	-5	0	6.5	x	x
CCOC(=O)C1=CNS(=O)(=O)NC1c1ccc(C[C@H](NC(=O)CNC(=O)CCc2ccccc2)C(N)=O)cc1 (some centres not stated)	2892	13	4	1	4.2	x	-3
Cc1cc(C)c2c(CN3CCC(C)CC3)cc(=O)oc2c1C	3785	27	-3	-1	-5.4	0	-22

Random draw from the library; any-hit rate near 4%.
